# 2A firefly = Primary qHTS Assay for Foot and Mouth Disease Virus Antivirals against NCGC Sytravon and CBC Compound Libraries: Firefly Luciferase Signal; HEK cells with a luciferase reporter of 2A StopGo recoding; Potency, µM (highest dose often 57.5 µM), for inactives: at the top dose signal change, negative = less light; 0.23% of 120,000 active; AID 1745856, 2022; active = well fitted falling curve with a large enough effect; inconclusive = small, poorly fitted or top-dose-only effect; inactive = no such curve, though single readings can be large or run the other way; further: nearly all actives have a fitted effect of over 60% in size; overnight with compound
# 2A Renilla = Primary qHTS Assay for Foot and Mouth Disease Virus Antivirals against NCGC Sytravon and CBC Compound Libraries: Renilla Luciferase Signal; HEK cells with a luciferase reporter of 2A StopGo recoding; Potency, µM (series often up to 57.5 µM), for the others: top-dose signal change, negative = less light; 0.32% of 120,000 active; active means well fitted falling curve with a large enough effect; inconclusive means small, poorly fitted or top-dose-only effect; inactive means no such curve, though single readings can be large or run the other way; further: nearly all actives have a fitted effect of over 55% in size; overnight with compound
# * hit, by the source's call; ? = inconclusive; & = joins results of further samples; [ ] = dose if it differs, or a comment. On the % scale 0 is the no-effect control and ±100 the full control effect; potency means the concentration at half of the fitted maximal effect.
SMILES,2A firefly,2A Renilla
O=C(Cc1ccsc1)N1CCC(c2nc3c(nnn3Cc3cccc(Cl)c3)c(=O)[nH]2)CC1,-7.1%,-0.6%
CCOCCn1c(CN2CCc3ccccc3C2)nc2c1c(=O)n(C)c(=O)n2C,0.8%,1.1%
CC(=O)N[C@H]1[C@H]([C@H](O)[C@H](O)CO)OC(C(=O)O)=C[C@@H]1N=C(N)N,-18.6%,-9.4%
O=C(COc1cc2oc(=O)cc(-c3ccccc3)c2cc1Cl)NCCCO,5.2%,-1.2%
O=C(Nc1cccc(-c2nc3cc(Cl)ccc3o2)c1)c1cc([N+](=O)[O-])ccc1N1CCOCC1,44.5%&60.2%[activator],-9.5%&6.9%
CC(=O)Nc1ccc(NC(=O)C(Cc2ccccc2)NS(=O)(=O)c2ccc3c(c2)oc(=O)n3C)cc1 (stereo not drawn),-16.0%,-7.5%
O=C(Nc1ccc(Cl)c(-c2nc3cc(Cl)ccc3o2)c1)c1cc([N+](=O)[O-])ccc1N1CCOCC1,3.3%,-11.4%
Cc1cc2c(cc1S(=O)(=O)CCC(=O)N(C)C1CCCCC1)OCC(=O)N2,5.1%,5.3%
COc1cc(CNc2nn[nH]n2)ccc1OCc1c(F)cccc1Cl,26.1%,6.3%
Cc1cc(C)c2c(CC(=O)Nc3ccccc3C(F)(F)F)coc2c1,-17.8%,-10.9%
COc1ccc(F)cc1S(=O)(=O)NCCc1csc(-c2ccc(Cl)cc2)n1,?,346.4%[activator]
Cc1c(-c2nsc(NC(=O)c3cccs3)n2)nnn1-c1ccc(F)cc1,103.9%[activator],-7.7%
Cc1cc(Nc2ccccc2F)n2nc(Cc3ccc(Cl)cc3)nc2n1,-12.6%,-10.8%
CC(=O)Nc1ccc(C(C)=O)cc1OCc1ccccc1C,-14.1%,?
CCOC(=O)c1sc2ccccc2c1S(=O)(=O)Nc1cccc(OC)c1,20.0%,214.3%[activator]
CCn1cc(C(=O)N2CCN(C)CC2c2ccccc2)c2ccccc21 (stereo not drawn),6.6%,26.9%
COc1ccc(N(C(=O)c2ccc(OC)c(OC)c2)S(=O)(=O)c2ccc(Cl)cc2)cc1,-20.5%,88.9%[activator]
Cc1ccc(-c2cc(C(=O)NCc3ccncc3)c3ccccc3n2)c(C)c1,10.8%,20.0%
COc1cc2ccccc2cc1C(=O)Nc1cccc(-c2nc3ccccc3o2)c1,-10.8%,-12.3%
CCOC(=O)c1cnc(Nc2ccc(C)cc2)c2ccccc12,105.3%[activator],42.8%[activator]

# Single records, as listed above.
# Entry for COc1cc(CNc2nn[nH]n2)ccc1OCc1c(F)cccc1Cl = 2A firefly = 26.1%; 2A Renilla = 6.3%
# Entry for Cc1cc2c(cc1S(=O)(=O)CCC(=O)N(C)C1CCCCC1)OCC(=O)N2 = 2A firefly = 5.1%; 2A Renilla = 5.3%

# Six entries drawn at random from those above:
SMILES,2A firefly,2A Renilla
O=C(Nc1ccc(Cl)c(-c2nc3cc(Cl)ccc3o2)c1)c1cc([N+](=O)[O-])ccc1N1CCOCC1,3.3%,-11.4%
O=C(COc1cc2oc(=O)cc(-c3ccccc3)c2cc1Cl)NCCCO,5.2%,-1.2%
CCn1cc(C(=O)N2CCN(C)CC2c2ccccc2)c2ccccc21 (stereo not drawn),6.6%,26.9%
Cc1c(-c2nsc(NC(=O)c3cccs3)n2)nnn1-c1ccc(F)cc1,103.9%[activator],-7.7%
COc1cc(CNc2nn[nH]n2)ccc1OCc1c(F)cccc1Cl,26.1%,6.3%
Cc1ccc(-c2cc(C(=O)NCc3ccncc3)c3ccccc3n2)c(C)c1,10.8%,20.0%

# Continued.
SMILES,2A firefly,2A Renilla
COc1ccc(/C=C(/C#N)C(=O)c2c(Cl)cccc2Cl)cc1,?,?
O=c1c2sccc2n(Cc2cc(=O)n3cc(Cl)ccc3n2)c(=O)n1-c1ccccc1,0.0%,12.7%
CCCCCCCC(=O)Oc1ccc(C(=O)O)cc1,13.2%,-0.8%
Cc1c(C(=O)Nc2ccc3oc(-c4cncc(Br)c4)nc3c2)cccc1[N+](=O)[O-],103.4%[activator],-0.2%
Clc1cccc(Cl)c1CNc1n[nH]c(-c2ccco2)n1,137.1%[activator],2.5%
N#CCCN(C(=O)Cn1nc(C(=O)O)c2ccccc2c1=O)c1ccccc1F,3.2%,2.0%
COc1ccc(N(C)C(=O)c2cc3ccccc3oc2=O)cc1OC,12.8%,9.3%
O=C(Nc1nc2ccc(F)cc2s1)c1cc(=O)c2ccccc2o1,0.0%,-1.1%
CCCCOc1ccc(C2=NC(c3cccs3)=Nc3ccc(CC)cc3N2)cc1,123.1%[activator],6.8%
O=C(Cc1ccccc1)c1ccccc1NC(=O)C(c1ccccc1)c1ccccc1,0.0%,40.2%[activator]
COc1ccc(S(=O)(=O)c2c(SC)nn(Cc3ccccc3C)c2NC(C)=O)cc1,-15.4%,37.7%[activator]
O=C(Nc1ccccc1Br)C1CCCN(S(=O)(=O)c2cccc3nsnc23)C1 (stereo not drawn),-7.0%,11.1%
Cc1nc2sc3c(c2c2nc(C(=O)NCCN(C)C)nn12)CCC3,-0.3%,-11.6%
COc1ccccc1N1CCN(c2ccc(=O)n(CC(=O)Nc3cc(F)ccc3C)n2)CC1,-1.9%,4.9%
COc1cc(C(=O)NCc2ccc3c(c2)CCN3C(=O)c2ccc(Cl)cc2)cc(OC)c1OC,-20.7%,-30.6%
COc1ccc(OC)c(C2NC(=O)NC(C)=C2C(=O)Nc2ccc(F)cc2)c1 (stereo not drawn),-17.0%,-13.3%
CC(C)C[C@H](NC(=O)Nc1ccc(F)cc1)C(=O)O,20.6%,6.3%
CCCC(=O)Nc1ccc(CNCc2ccc(C)cc2C)cc1,5.6%,9.2%
CCOC(=O)C(=O)N1CCN(c2nc(-c3ccccc3)c3c(c2C#N)CCCC3)CC1,1.6%,0.0%
COc1cc(CN2CCN(S(=O)(=O)c3ccc(NC(C)=O)cc3)CC2)cc(OC)c1OC,-6.0%,-9.3%
COc1ccc(C(=O)/C=C/c2ccc(C)cc2)cc1OC,51.9%[activator],19.9%
Cc1cnc2c(S(=O)(=O)NCCCOCC3CC3)cccc2c1,-9.4%,112.8%[activator]
Clc1ccc(CSc2nccn2C2CC2)c2ncccc12,9.4%,14.9%
Cc1ccc2nc(-c3ccc(NC(=O)COc4ccccc4C(C)(C)C)cc3)sc2c1,196.5%[activator],20.3%
Cc1ccc(NC(=O)NCc2nc(-c3ccccc3C)oc2C)cc1F,98.7%[activator],5.6%
CCCN(CCC)C(=O)Cn1c(=O)n(CCCCCC(=O)Nc2ccccc2)c(=O)c2sccc21,0.0%,0.0%
CCOc1cccc(C(=O)Nc2nnc(-c3ccccc3F)s2)c1,-17.4%,-21.1%
CC(C)NC(=O)c1ccc(Cl)cc1-n1cnnn1,-14.2%,-11.8%
CC(=O)c1cccc(NC(=O)CCS(=O)(=O)c2ccc3c(c2)n(C)c(=O)c(=O)n3C)c1,0.7%,-2.5%
CCC(=O)C1=C(c2cccc(OC)c2)N(C(=O)CC)n2c(nnc2C2CCCCC2)S1,-18.8%,4.5%
CCOC(=O)c1ccc(NS(=O)(=O)c2cc(-c3onc(C)c3C)ccc2C)cc1,-11.3%,19.1%
CCOc1ccc(CCNC(=O)Cn2ncc3c(=O)oc4ccc(C)cc4c32)cc1,-16.8%,-17.7%
O=C(O)c1cccc(CS(=O)(=O)c2ccccc2)c1,7.2%,-6.7%
Cc1nc(N2CCCC2)c2c(C(=O)Nc3ccc(C)c(Cl)c3)c(C)oc2n1,3.4%,2.6%
CCN(CC)C(CNC(=O)Nc1ccc(C(=O)N2CCCCCC2)cc1)c1ccsc1 (stereo not drawn),-4.8%,7.8%
CCOC(=O)c1cccc(NC(=O)c2cc3c(=O)n(Cc4cccnc4)ccc3nc2C)c1,-6.4%,-2.3%
Cc1cc(C(=O)Nc2c(C(C)C)cccc2C(C)C)cs1,15.9%,-4.5%
Fc1ccc(CSc2nnc(-c3ccncc3)o2)cc1,68.8%[activator],-5.0%
O=C(NCCc1cccc2cccnc12)NC1CCN(CC2CCCC2)CC1,-10.9%,-10.0%
Cc1ccc(NC(=O)c2cc(-c3cccs3)nc3ccccc23)c(C)c1,-9.9%,11.8%
COc1ccc(C(NC(=O)CNc2ccccc2C(N)=O)C2CC2)cc1 (stereo not drawn),7.9%,-5.3%
CC(C)(C)C1CCC(=NNC(=S)NC2CCCCC2)CC1 (stereo not drawn),54.3%[activator],21.9%
COc1ccc(-c2cc(C(F)(F)F)n3nc(C(=O)Nc4ccccc4SC)cc3n2)cc1OC,1.1%,-1.4%
COc1ccccc1N1CCN(C(=O)C2CCN(S(=O)(=O)Cc3ccc(F)cc3)CC2)CC1,-14.7%,-13.4%
CC(=O)Nc1ccc(C)cc1-c1nc2ccccc2n(CC(=O)c2ccc(C)c(C)c2)c1=O,-21.9%,10.7%
CCOC(=O)C1CCN([C@H]2CS(=O)(=O)C[C@@H]2S(=O)(=O)c2ccc(OCC)cc2)CC1,-3.1%,-5.6%
CCN1CCN(C(=O)c2cc3cc(Cl)ccc3[nH]2)CC1,26.5%,-6.3%
CCNS(=O)(=O)c1ccc(NC(=O)CSc2nc(-c3ccco3)cc(C(F)(F)F)n2)cc1,0.7%,87.8%[activator]
O=C1CSc2ccc(C(=O)Nc3ccccc3O)cc2N1,175.6%[activator],-16.6%[1.06 µM]
COc1ccccc1NC(=O)c1nn(-c2ccc(C)cc2)ccc1=O,0.0%,3.4%
CC(=O)c1ccc(NC(=O)c2ccc3c(c2)N(Cc2cccc(Cl)c2)C(=O)c2ccccc2S3(=O)=O)cc1,57.2%[activator],39.7%[activator]
CCOC(=O)Cn1c(=O)oc2cc(S(=O)(=O)N3CCC(C(=O)OCC)CC3)ccc21,-4.9%,-7.9%
COC(=O)C1=C(C)N(C2CC2)C(=S)NC1c1cccs1 (stereo not drawn),15.2%,-4.5%
Cc1ccccc1NC(=O)c1c(NC(=O)COCC(=O)O)sc2c1CCCCC2,134.7%[activator],-17.2%
CC(=O)Nc1ccc(S(=O)(=O)[C@H]2CS(=O)(=O)C[C@@H]2N2CCCCC2)cc1,0.0%,5.1%
O=C(COc1ccccc1)NCCc1c[nH]c2ccccc12,53.4%[activator],14.0%
CN1CCN(C(=O)c2cnc(N3CCCC3)c3ccccc23)CC1,-17.9%,-7.1%
Cc1cccc(N(C)S(=O)(=O)c2cc3c(cc2Cl)NC(=O)CO3)c1,-7.9%,15.0%
Cc1ccc(C(=O)c2cn(Cc3ccccc3F)c3cc4c(cc3c2=O)OCCO4)cc1,-8.6%,-14.6%
Cc1ccc(S(=O)(=O)N2CCc3cc(C(=O)Nc4ccc(C(F)(F)F)cc4)ccc32)cc1,1.8%,135.8%[activator]
# (more compounds)
SMILES,2A firefly,2A Renilla
Cc1ccc(-n2ncc3c(Nc4cccc(C(=O)O)c4)ncnc32)cc1,97.4%,50.2%[activator]
O/N=C1\CCCc2c1nc(-c1ccccc1Cl)n2O,-1.4%,6.6%
Cn1ccccc1=S,-2.3%,-1.6%
COc1ccc(NC(=O)Cn2c(SCc3cccc(Cl)c3)nc3ccncc32)c(OC)c1OC,28.3%,-0.3%
Cc1cc(C)cc(N(C)CC(=O)NC(N)=O)c1,14.2%,6.1%
CCCC1=Nc2cc(C(=O)NCCc3ccccc3)ccc2Sc2ccc(C)cc21,116.6%[activator],53.8%[activator]
CN1C(=O)Cc2cc(S(=O)(=O)N3CCN(c4ccc(Cl)cc4)CC3)ccc21,-22.0%,-11.0%
CCOC(=O)C1=C(CN2CCN(c3cccc(OC)c3)CC2)NC(=O)NC1c1ccc(OC)cc1 (stereo not drawn),-19.1%,-9.0%
COc1ccc(NC(=O)c2cc3c(=O)n(Cc4cccs4)ccc3nc2C)cc1,5.9%,7.9%
CO/N=C(/c1ccc(OC)cc1)c1ccc(OCC(C)C)cc1,63.2%[activator],0.9%[1.06 µM]
COc1ccc(Cl)cc1NC(=O)N1CCN(c2nc3ccccc3n2Cc2ccccc2)CC1,79.6%[activator],76.5%[activator]
CCCCC(=O)Nc1nnc(SCc2cc(=O)n3cc(C)ccc3n2)s1,-13.4%,-1.9%
O=C(COC(=O)Cc1ccc(F)cc1)NCc1ccc(Cl)cc1,-9.0%,-17.2%
CC1CCN(C(=O)Cn2c(-c3cccs3)cc3cc(Cl)ccc32)CC1,-10.2%,6.8%
CCOc1ccc(-n2c(=O)c3c4c(sc3n(CC(=O)Nc3cccc(C(F)(F)F)c3)c2=O)CCCCC4)cc1,-10.1%,-1.7%
C[C@]12CC[C@H]3[C@@H](CC[C@@]45O[C@H]4C(O)=C(C#N)C[C@]35C)[C@H]1CC[C@H]2O,-10.8%,-6.8%
Cc1ccc(C(=O)N(Cc2ccco2)C2CC2)s1,-1.7%,0.3%
CCCCCn1nc(C(=O)Oc2ccc(C(=O)CC)cc2)c2ccccc2c1=O,39.6%[activator],41.2%[activator]
O=C(CSc1nc2c([nH]c3ccccc32)c(=O)n1-c1ccccc1F)Nc1ccccc1C(F)(F)F,-36.6%,-10.5%
CCOc1ccccc1-c1cc(C(=O)OC)c2ccccc2n1,17.3%,6.1%
COc1cccc(CNC(=O)C2CCN(c3nc4ccccc4o3)CC2)c1,-19.5%,-28.8%
Cc1ccccc1Cn1c(NC2CCCC2)nc2c1c(=O)[nH]c(=O)n2C,-1.2%,1.9%
CCN(CC)C(=O)Cn1c(=O)cc(C)c2c(C)nn(-c3ccc(C)cc3)c21,-19.7%,-14.3%
COc1ccc(-c2noc(CCC(=O)Nc3ccc(C)cn3)n2)cc1OC,13.2%,-5.3%
CCCCOc1ccccc1C(=O)Nc1nonc1-c1ccccc1,?,0.7%
CNC(=O)C1CCN(CCc2ccncc2)CC1,21.3%,3.5%
COc1cccc(N2CCN(C(=O)c3cccc(-n4c(C)nc5cccnc54)c3)CC2)c1,?,?
